LASV entry inh – Lassa virus entry inhibition; Lassa virus pseudotype entry inhibition, cell reporter; control for the full effect not named in the record; AID 540256; Potency, µM (series often up to 37.9 µM), for the others: at the top dose activity change, negative = inhibition, hits mostly inhibitors; 1.2% of 300,000 active; active means well fitted inhibition curve with a large enough effect; inconclusive means small, poorly fitted or top-dose-only effect, or effect the other way; inactive means flat fitted curve, though single readings scatter; tested in HEK293 cells; further: on the % scale 0 is the no-effect control and ±100 the full control effect; nearly all actives have a fitted effect of over 50% in size; luciferase read-out
Marburg entry inh – inhibitors of Marburg virus binding or cell entry; Marburg virus pseudotyped entry inhibition, cell reporter; control for the full effect not named in the record; about a third of the inactives were read at about 46 µM; Potency, µM (doses to about 37.8 µM), inactives show at the top dose activity change, negative = inhibition, most hits filed as inhibitors; 1.8% of 300,000 active; active = well fitted inhibition curve with a large enough effect; inconclusive = small, poorly fitted or top-dose-only effect, or effect the other way; inactive = flat fitted curve, though single readings scatter; tested in HEK293 cells; about a fifth of its hits are not listed in these tables; further: on the % scale 0 is the no-effect control and ±100 the full control effect; luciferase read-out
RE007 growth inh – less growth of the S. pombe RE007 Vpr strain; Potency, µM (series often up to 92.2 µM), for inactives: at the top dose activity change, negative = less growth; S. pombe RE007 Vpr strain, BacTiter-Glo ATP luminescence, 24 h; control for the full effect not named in the record; 0.21% of 360,000 active; active = well fitted falling curve with a large enough effect; inconclusive = small, poorly fitted or top-dose-only effect; inactive = no such curve, though single readings can be large or run the other way;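 further: on the % scale 0 is the no-effect control and ±100 the full control effect; nearly all actives have a fitted effect of over 50% in size; the assay follows cell death caused by Vpr and the record does not say whether a fall means rescue or toxicity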
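Fission yeast RE007 carrying one integrated HIV-1 vpr copy, seeded at OD 0.01 in PMG+AL medium with 23 nL pinned compound. Grown 24 h at 30 degrees; viability read by BacTiter-Glo luminescence after 5 min.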
Cruzain Triton – cruzain (T. cruzi) inhibition with detergent | Potency, µM, for the others: max response, negative = inhibition, most hits filed as inhibitors | AID 1478 | purified cruzain, Z-FR-AMC fluorescence, 0.01% Triton | P25779 | 0.43% of 200,000 active;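 further: plate controls were neutral wells for no effect and buffer without enzyme for full effect; nearly all actives have a fitted effect of over 40% in size; top concentration of the series not given in the record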
Target sequence (P25779 123-467 limits assumed): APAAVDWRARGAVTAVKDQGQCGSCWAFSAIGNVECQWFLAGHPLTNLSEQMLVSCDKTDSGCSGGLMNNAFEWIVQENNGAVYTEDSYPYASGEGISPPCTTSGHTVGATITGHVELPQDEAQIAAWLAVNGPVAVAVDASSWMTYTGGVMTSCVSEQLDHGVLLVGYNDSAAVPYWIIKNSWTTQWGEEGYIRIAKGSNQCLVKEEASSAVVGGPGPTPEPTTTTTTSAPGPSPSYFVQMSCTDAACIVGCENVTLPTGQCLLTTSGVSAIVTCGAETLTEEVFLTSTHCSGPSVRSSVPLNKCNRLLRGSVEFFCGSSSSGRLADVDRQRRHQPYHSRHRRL
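Detergent-containing run (0.01% Triton X-100) in acetate buffer pH 5.5 with 5 mM DTT: enzyme at 1.5 nM final, 15 min compound preincubation at room temperature, then 2 uM Z-FR-AMC substrate. Activity taken as 60 s fluorescence increase at 360/450 nm.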
StopGo reporter – FMDV 2A StopGo reporter, luciferase signal; human cells with a luciferase reporter of 2A StopGo recoding; control for the full effect not named in the record; Potency, µM (highest dose often 57.9 µM), for inactives: top-dose signal change, negative = less light; 1.2% of 410,000 active; AID 1159524; active = well fitted falling curve with a large enough effect; inconclusive = small, poorly fitted or top-dose-only effect; inactive = no such curve, though single readings can be large or run the other way; tested in HEK293T cells; further: on the % scale 0 is the no-effect control and ±100 the full control effect; nearly all actives have a fitted effect of over 45% in size; luciferase light after 4 h
Cruzain inh noDet – cruzain (T. cruzi) inhibition without detergent; P25779; purified cruzain, Z-FR-AMC fluorescence, no detergent; Potency, µM, inactives show max response, negative = inhibition, actives largely listed as inhibitors; 2.3% of 200,000 active; AID 1476;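 further: plate controls were enzyme without inhibitor for no effect and buffer without enzyme for full effect; nearly all actives have a fitted effect of over 40% in size; top concentration of the series not given in the record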
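Purified cruzain at 1.5 nM, pre-incubated 15 min with compound at room temperature in 100 mM sodium acetate pH 5.5, 5 mM DTT, 0.00005% Triton X-100. Reaction started with 2 uM Z-FR-AMC; AMC fluorescence increase over 60 s gives rate.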
SARS PLP yeast – inhibitors of SARS-CoV papain-like protease in yeast; S. cerevisiae expressing SARS-CoV PLpro, growth rescue; control for the full effect not named in the record; Potency, µM (titrated, usually from 32.9 µM), for the others: at the top dose activity, positive = growth rescue; 0.19% of 330,000 active; AID 485353; active means well fitted rising curve with a large enough effect; inconclusive means small, poorly fitted or top-dose-only effect; inactive means no such curve, though single readings can be large or run the other way; further: 0% is about no effect; nearly all actives have a fitted effect of over 55% in size; growth read by luminescence after 48 h
NS1 inh – influenza NS1 inhibition. S. cerevisiae slowed by influenza A NS1, growth recovery by OD600. Potency, µM (series often up to 46.1 µM), inactives show at the highest dose activity, positive = more growth. 0.4% of 270,000 active; active means well fitted rising curve with a large enough effect; inconclusive means small, poorly fitted or top-dose-only effect; inactive means no such curve, though single readings can be large or run the other way; further: nearly all actives have a fitted effect of over 50% in size
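A cell-based growth assay was used: compounds that relieve NS1-induced slow growth of budding yeast raise OD600. Assay medium was yeast nitrogen base with ammonium sulphate and -URA supplement, pH 6.0, with 2% galactose.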
Starred values were filed as active, the others as inactive; ? = inconclusive; nt = not tested or not shown; & = joins results of further samples; [ ] = another dose, or the depositor's remark. Unless noted, the call rests on the fitted dose curve; in most records, active means well fitted curve in the direction sought with a large enough effect; inconclusive means small, poorly fitted or top-dose-only effect, or another doubt; inactive means no such curve, though single readings can be large; an effect the other way counts as inactive or inconclusive. Potency means the concentration at half of the fitted maximal effect.

molecule	LASV entry inh	Marburg entry inh	RE007 growth inh	Cruzain Triton	StopGo reporter	Cruzain inh noDet	SARS PLP yeast	NS1 inh
COc1ccc(-c2nnn3c2nc(N2CCCC(C)C2)c2ccccc23)cc1 (stereo not given)	8%[46.1 µM]	2%[46.1 µM]	nt	0.3%	-16%	0%	nt	nt
C/C(=N/NC(=O)C1CCCCC1)c1ccc([N+](=O)[O-])cc1	-1%	-1%	-3%	-1.2%	-1%	-17%	2%	8%
Cc1ccc2c(c1)-c1onc(C(=O)N3CCN(c4ccc(Cl)cc4)CC3)c1CO2	?	nt	nt	-3.6%	-16%	?	nt	nt
CCOC(=O)c1sc2ncn(C(C)C(=O)OC)c(=O)c2c1C (stereo not given)	3%	10%	-9%	3.3%	24%	6%	10%	-11%
CC1CCCCN1C(=O)CSc1nnc(CSc2ncccn2)n1C (stereo not given)	4%	-23%	16%	3.6%	4%	-4%	-5%	-10%
O=C(Cn1c(=O)oc2cc(S(=O)(=O)NCc3ccccc3)ccc21)N1CCCC1	-7%	1%[46.1 µM]	-1%	nt	-11%	nt	0%	-3%
CCCCNC(=O)Nc1ccc2c(c1)N(C)C(=O)c1ccccc1S2	?	9%	10%	-0.6%	21%&2%	9%	1%	-4%
CCCCCn1c(=O)[nH]c2cc(C(=O)NCCCN3CCCCC3C)ccc2c1=O (stereo not given)	nt	?	1%	nt	-20%	nt	1%	-1%
O=C(NCCc1csc(-c2ccc(F)cc2)n1)C(=O)Nc1ccc(Cl)cc1	-3%[46.1 µM]	nt	nt	-0.3%	-15%	-2%	nt	nt
C=C1C2(C(=O)Nc3nccs3)CCC(C2)C1(C)C (stereo not given)	0%	-9%	-5%	0.5%	-7%	2%	?	-3%
O=C(CSc1nc(O)cc(=O)n1-c1ccccc1)Nc1ccc(Br)cn1	-2%[46.1 µM]	17%[46.1 µM]	0%	nt	-15%	nt	1%	23%
CCSc1nc2sc3c(c2c(=O)n1-c1ccccc1C)CCN(C)C3	-27%	?	-14%	nt	?	nt	1%	8%
CCOCCCNC(=O)Cn1nc(CC)n2c(cc3c(OC)cccc32)c1=O	nt	11%[46.1 µM]	nt	-0.9%	-23%	7%	nt	nt
CCCOC(=O)c1c(NC(=O)c2cnn3c2NC(c2ccccc2)CC3C(F)(F)F)sc2c1CCCC2 (stereo not given)	17%	-12%	-5%	-5.0%	-17%	5µM*	11%	1%
O=C(c1ccccc1)c1ccc(OCC(O)CN2CCN(S(=O)(=O)N3CCCCC3)CC2)cc1 (stereo not given)	?	-20%	-11%	-8.3%	14µM*	?	8%	-8%
Cc1cc2nc(NC3=NCN(CCN4CCOCC4)CN3)nc(C)c2cc1C	nt	0%	nt	-7.0%	nt	-6%	0%	-6%
CC(=O)NCCc1c(C)n(Cc2ccccc2)c2ccccc12	7%	0%	42%	nt	-29%	nt	-9%	-10%
COc1ccc(NC(=O)CSc2nnc(NC(=O)CN3CCOCC3)s2)cc1	10%	14%	-1%	nt	-1%	nt	-1%	nt
CCS(=O)(=O)c1ncc(Cl)c(C(=O)Nc2ccccc2)n1	?	?	nt	-5.4%	?	-11%	nt	nt
COc1cc(/C=C2\SC(=S)N(NC(=O)c3ccccc3O)C2=O)ccc1O	1%[46.1 µM]	?	-17%	nt	-25%	nt	-3%	6%
Cc1ccc(-n2nc3c(=O)n(CC(=O)NC4CCCCCC4)nc(C)c3c2C)cc1	-12%[46.1 µM]	9%[46.1 µM]	1%	nt	-20%	nt	-3%	4%
Cn1cnnc1SCCC(=O)Nc1ccccc1	-1%	?	3%	0.8%	27%	-10%	3%	-5%
CCc1cc(-c2[nH]ncc2-c2ccc3c(c2)OCO3)c(O)cc1O	?	?	3%	-11%	nt	-7%	-6%	-56%
CCc1ccc2nc(N(CCN(C)C)C(=O)c3ccc4ncsc4c3)sc2c1	-26%	?	9%	nt	12%	nt	-11%	3%
O=C(CSc1nnc(Cc2cccs2)n1Cc1ccco1)Nc1cc(Cl)cc(Cl)c1	-23%	?	12%	-5.3%	-23%	0%	-11%	-5%
CC(=O)Nc1sc(C)c(C)c1C(=O)OCC(=O)NC(C)c1ccccc1 (stereo not given)	6%	?	1%	nt	-13%	nt	4%	nt
C#CCNC(=O)C1=C[C@H](c2csc3ccccc23)C[C@H](OCc2ccc(CO)cc2)O1	nt	nt	11%	nt	?	nt	-1%	7%
C[C@H](NC(=O)c1ccccc1Cl)C(=O)OCC(=O)N1CC2(C)CC1CC(C)(C)C2 (stereo not given in full)	21%	1%	17%	?	1%	?	9%	-6%
COc1ccc(Cl)cc1-c1nc(SCC(=O)NC(C)(C)C)n[nH]1	-19%	?	25%	nt	-19%	nt	-1%	nt
O=C(Nc1ccc(Cl)c(NC(=O)c2cccs2)c1)c1ccco1	nt	nt	-23%	nt	-15%	nt	-3%	-61%
CC(C)NC(=O)CN(c1cccc([N+](=O)[O-])c1)S(=O)(=O)c1ccccc1	3%[46.1 µM]	-11%[46.1 µM]	3%	nt	4%	nt	-1%	nt
CC(C)NC(=O)C1CCN(C(=O)N2CC(C)Oc3ccccc32)CC1 (stereo not given)	0%[46.1 µM]	nt	nt	-3.3%	-12%	3%	nt	nt
Cn1nnnc1SCc1csc(Nc2ccccc2)n1	0%	-6%	9%	-1.8%	23%	-13%	4%	-4%
COc1cccc(C(=O)Nc2ccc3c(c2)C(=O)N(CCC(=O)O)C3=O)c1	-2%	-6%	-4%	5.6%	4%	3%	-1%	12%
O=C(Cn1nnc(-c2ccccc2)n1)Nc1cccc(S(=O)(=O)N2CCOCC2)c1	8%	-9%	4%	nt	9%	nt	1%	nt
CCOc1ccc(N(CC(=O)NCC2CCCO2)S(=O)(=O)c2ccc(Cl)cc2)cc1 (stereo not given)	?	-23%	-2%	3.4%	24%	6%	5%	6%
NNC(=O)[C@H](Cc1ccccc1)NC(=O)NCCc1ccccc1	nt	nt	-8%	nt	-6%	nt	2%	6%
Cc1ccccc1CCNC(=O)c1ccc(NC(=O)N2CC(C)Sc3ccccc32)cc1 (stereo not given)	14%[46.1 µM]	28%[46.1 µM]	nt	-5.4%	-23%	?	nt	nt
CCOc1ccc(Nc2oc(-c3ccc(COc4ccccc4C)o3)nc2C#N)cc1	3%[46.1 µM]	3%[46.1 µM]	nt	-3.3%	-22%	?	nt	nt
CCc1nc(SCc2cccnc2)[nH]c(=O)c1C	-4%	3%	7%	8.0%	11%	1%	-1%	-2%
Cc1cc(S(=O)(=O)N(Cc2ccc(C(C)(C)C)cc2)Cc2cccs2)ccc1-n1cnnn1	?	?	-4%	-4.2%	10%	-9%	-14%	-7%
CCCC(C(=O)Nc1ccc(S(=O)(=O)Nc2nccs2)cc1)c1ccccc1 (stereo not given)	-1%	11%	-4%	nt	41%[activator]	nt	-3%	nt
O=C(/C=C/c1ccc([N+](=O)[O-])cc1)OCC(=O)N1CCOCC1	-17%	12%	-9%	nt	-1%	nt	4%	nt
CCOC(=O)CCCCC(=O)c1[nH]c(=O)[nH]c1CSc1nc2ccccc2[nH]1	14%	19%	-8%	-1.7%	nt	-11%	-10%	?
Cc1oc2nc(SCCCC(=O)NCCO)nc(N)c2c1C	-14%	3%	12%	3.3%	0%	2%	3%	-7%
Cc1ccc(-n2ncc(C(=O)NCCc3c[nH]c4ccccc34)c2C2CCN(C(=O)OC(C)(C)C)CC2)cc1C	?	?	nt	-1.5%	-21%	-15%	nt	nt
COc1cccc(NC(=O)Cn2c(=O)n(CCC(=O)NCCc3ccc(Cl)cc3)c(=O)c3ccccc32)c1	-16%[46.1 µM]	-3%[46.1 µM]	nt	-3.0%	-20%	-9%	nt	nt
Cc1csc(=O)n1CC(=O)Nc1ccc(C(C)C)cc1	?	4%	2%	nt	78%[activator]	nt	0%	nt
CC(=O)Nc1ccc(S(=O)(=O)NCc2ccncc2)cc1	-4%[46.1 µM]	?	3%	nt	0%	nt	1%	0%
Cc1ccc(NC(=O)N2CCC(c3ccccc3)C2)cc1C (stereo not given)	?	?	-4%	-2.4%	-22%&31%	-14%	-4%	nt
CCOC(=O)c1cc(C#N)c(N)nc1C	-4%	7%	12%	-0.9%	-4%	-3%	-2%	-2%
Cc1c(C#N)c2ccccc2n1CC(=O)O	15%	0%	0%	2.8%	7%	-3%	3%	10%
CCCn1nnc2ccccc2c1=O	2%	6%	0%	1.6%	0%	-4%	-4%	1%
NNC(=O)CCn1c2ccccc2c2ccccc21	-1%	-1%	-10%	nt	-6%	nt	0%	0%
COc1cccc(NC(=O)Cn2cc(C(=O)c3ccccc3)c3ccccc32)c1	?	?	nt	-6.1%	-27%	-16%	nt	nt
CCC1CCCCN1CCCNC(=O)c1ccc2c(c1)N(Cc1ccc(Cl)cc1)C(=O)c1ccccc1S2(=O)=O (stereo not given)	?	?	nt	2.8%	-14%	1%	nt	nt
Cn1c(CNc2nc3ccccc3n2CCN2CCCCC2)nc2ccccc21	-6%	2.8µM*	?	2.3%	-11%	-3%	-2%	-4%
COc1cc(OC)c(C(=O)/C=C/c2ccc(OCc3ccccc3)c(OC)c2)c(OC)c1	?	11µM*	2%	nt	?	nt	-4%	?
O=C(CN1CCCC1)Nc1nnc(-c2cccs2)s1	0%	6%	-11%	-13%	47%[activator]	13%	1%	9%
COc1ccc(-c2c(C(=O)O)c(C(=O)O)c3n2CCC3)cc1	?	?	8%	nt	16%	nt	0%	16%

Other records
molecule	LASV entry inh	Marburg entry inh	RE007 growth inh	Cruzain Triton	StopGo reporter	Cruzain inh noDet	SARS PLP yeast	NS1 inh
O=C(NCc1ccncc1)c1cnccn1	10%	9%	3%	5.4%	1%	14%	7%	7%
Cc1ccc2c(COC(=O)CC3Sc4ccccc4NC3=O)cc(=O)oc2c1C (stereo not given)	-6%	?	4%	-6.0%	-3%	?	3%	16%
COc1ccc(CCNC(=O)CCCn2nc(C)n3ccnc3c2=O)cc1OC	nt	nt	3%	nt	-23%	nt	4%	-4%
CCN1/C(=C/c2ccc3ccccc3[n+]2CCCS(=O)(=O)[O-])C=Cc2cc(C)ccc21	14%[46.1 µM]	23%[46.1 µM]	-26%	nt	?	nt	-2%	2%

High-throughput results from PubChem BioAssay.
